Vaccinia stage – blocks a specific stage of Vaccinia orthopoxvirus infection; AID 1053133; Vaccinia-infected cells, mCherry/Venus stage reporter fluorescence; stronger effect = lower value; some inactives read as strong as hits; 89,000 tested, 0.01% active; activity change (mCherry), % (no concentration beside the values);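 active = mCherry past -33% and 40 or more points under the early reporter, replicates agreeing; inconclusive = past -33% without that gap or agreement; tested in A549 cells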;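 note: scaled between vehicle wells and reference inhibitor wells; 23 nL library stock went into each well; one replicate is shown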
Vaccinia stage Venus – recorded beside Vaccinia stage, whose call it bears; activity change (Venus), %; measured here: Venus reporter, other viral stage;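 negative = less Venus signal; first of two replicates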
An asterisk follows results filed as active; u = inconclusive; x = not tested or not shown; & = joins results of further samples. This is a subset; the hit share may differ from the screen's.

SMILES | Vaccinia stage | Vaccinia stage Venus
Cc1noc(C)c1NC(=O)Nc1cccc2c1O[C@H](CN(C)C(=O)NC1CCCCC1)[C@H](C)CN([C@@H](C)CO)C2=O | 0 | 4
CO[C@@H]1CN(C)C(=O)c2ccc(NS(=O)(=O)CC(F)(F)F)cc2OC[C@H](C)N(C)C[C@@H]1C | -3 | -2
N#C[C@@H]1[C@@H](c2ccccc2-c2cccc(F)c2)[C@H](CO)N1C(=O)Cc1cccnc1 | -29 | -22
Cc1ccc(S(=O)(=O)NCC[C@H]2CC[C@@H](NC(=O)CCN3CCCCC3)[C@@H](CO)O2)cc1 | 0 | 4
C[C@H]1CN([C@@H](C)CO)C(=O)c2cc(/C=C/c3ccccc3)cnc2O[C@H]1CN(C)C(=O)c1cnccn1 | 20 | 6
CCCC#Cc1ccc([C@H]2[C@@H](C#N)N(C(=O)C3CCC3)[C@H]2CO)cc1 | u | x
CO[C@@H]1CN(C)C(=O)c2ccc(NC(=O)C3CCCC3)cc2OC[C@H](C)N(CC2CC2)C[C@H]1C | 8 | 10
Cc1noc(C)c1S(=O)(=O)N(C)C[C@H]1OCc2ccccc2-c2c(n(C)c3ccccc23)C(=O)N([C@@H](C)CO)C[C@H]1C | u | x
C[C@@H]1CN([C@@H](C)CO)C(=O)c2cc(NS(=O)(=O)c3ccccc3)ccc2O[C@@H](C)CCCCO[C@@H]1CN(C)S(=O)(=O)c1ccc(F)cc1 | -19 | -12
CCC(=O)N[C@@H]1C=C[C@H](CC(=O)NCc2cc(F)cc(F)c2)O[C@@H]1CO | 3 | 5
N#Cc1ccc(-c2ccc([C@@H]3[C@H](CO)N4CCCCN(C(=O)Nc5ccc(F)cc5)C[C@@H]34)cc2)cc1 | u | x
CC(C)NC(=O)Nc1ccc2c(c1)C(=O)N([C@@H](C)CO)C[C@H](C)[C@@H](CN(C)S(=O)(=O)c1cccs1)OCCCC[C@@H](C)O2 | 7 | 9
CN(C)C(=O)[C@H]1[C@H](CO)[C@H]2Cn3c(cccc3=O)[C@H]2N1CCc1ccccc1 | -9 | 1
CC(C)NC(=O)N(C)C[C@@H]1Oc2ccc(NC(=O)C3CC3)cc2CC(=O)N([C@H](C)CO)C[C@@H]1C | 3 | 9
CN1[C@@H]2Cn3c(ccc(-c4ccc(F)cc4)c3=O)[C@H]1[C@@H](C(=O)N1CCCCC1)[C@@H]2CO | 15 | 1
C[C@H](CO)N1C[C@H](C)[C@@H](CN(C)S(=O)(=O)c2ccc(C(F)(F)F)cc2)OCc2ccccc2-c2c(n(C)c3ccccc23)C1=O | u | x
C[C@@H]1CN([C@@H](C)CO)S(=O)(=O)c2ccc(C#CC3CC3)cc2O[C@@H]1CN(C)S(C)(=O)=O | -7 | -7
O=C(NCC[C@H]1CC[C@@H](NS(=O)(=O)c2cccc(F)c2)[C@@H](CO)O1)C1CCCCC1 | 0 | -6
CC=Cc1ccc2n(c1=O)C[C@@H]1[C@@H](CO)[C@H](C(=O)NCc3ccc(F)cc3)N(Cc3cncnc3)[C@H]21 (mixture of isomers) | -7 | -1
COc1cccc(C#Cc2ccc([C@@H]3[C@@H](C#N)N(C(=O)c4ccccn4)[C@H]3CO)cc2)c1 | u | x
C[C@@H]1CN([C@H](C)CO)C(=O)c2cc(NC(=O)Nc3ccc(C(F)(F)F)cc3)ccc2O[C@@H](C)CCCCO[C@H]1CN(C)C(=O)C1CCCCC1 | -34 | -9
C[C@@H]1CN([C@H](C)CO)C(=O)c2c(c3ccccc3n2C)-c2ccccc2CO[C@H]1CN(C)Cc1ccncc1 | -11 | -5
O=C(c1cccc(F)c1)N1CC[C@@H]2[C@H](CO)Nc3ccc(C#Cc4cccc(F)c4)cc3[C@@H]21 | 8 | 4
COc1ccc(S(=O)(=O)Nc2ccc3c(c2)C(=O)N([C@H](C)CO)C[C@@H](C)[C@@H](CN(C)C(=O)Cc2ccccc2)OCCCC[C@H](C)O3)cc1 | -15 | -15
C[C@@H]1CN([C@H](C)CO)C(=O)c2cc(C#C[C@@H](C)O)cnc2O[C@@H]1CN(C)C(=O)Nc1ccc(C(F)(F)F)cc1 | 14 | 3
C[C@H]1CN([C@@H](C)CO)S(=O)(=O)c2ccc(C3=CCCC3)cc2O[C@H]1CN(C)CC1CC1 | -23 | -21
COc1ccccc1-c1ccc([C@H]2[C@@H](C#N)N(C(=O)C3CCC3)[C@H]2CO)cc1 | u | x
CNC[C@@H]1OCCCC[C@@H](C)Oc2ccc(NC(=O)Cc3ccccc3)cc2C(=O)N([C@H](C)CO)C[C@H]1C | -11 | -5
CCCNC(=O)N(C)C[C@H]1Oc2cc(-c3cccnc3)ccc2S(=O)(=O)N([C@@H](C)CO)C[C@@H]1C | 4 | 4
CC(=O)N(C)C[C@H]1Oc2cc(C#CC(C)(C)O)ccc2S(=O)(=O)N([C@H](C)CO)C[C@H]1C | 6 | 5
CS(=O)(=O)N1[C@H](CO)[C@@H](c2ccc(-c3ccccc3F)cc2)[C@@H]1C#N | u | x
O=C(Nc1ccccc1F)N1CC(=O)N2[C@H](C1)[C@@H](c1ccc(-c3cccnc3)cc1)[C@@H]2CO | -1 | -2
CCCNC(=O)N1CC2(C1)CN(C(=O)CC1CC1)[C@@H](CO)c1c2c2ccc(OC)cc2n1C | 0 | -16
O=C(NC[C@H]1[C@@H](c2ccccc2)[C@H](CO)N1CC1CC1)c1cccnc1 | 0 | -1
C[C@@H]1CCCCO[C@@H](CN(C)C(=O)c2ccccc2)[C@H](C)CN([C@@H](C)CO)C(=O)c2cc(NC(=O)Nc3ccc(C(F)(F)F)cc3)ccc2O1 | -19 | -4
CC(C)NC(=O)N(C)C[C@@H]1Oc2ccc(NC(=O)Nc3ccccc3)cc2CC(=O)N([C@H](C)CO)C[C@@H]1C | 13 | 2
O=C(CC1CC1)N1CC(=O)N2[C@H](C1)[C@H](c1ccc(-c3ccccc3)cc1)[C@@H]2CO | 20 | 5
C[C@@H]1CN([C@H](C)CO)C(=O)Cc2cc(NC(=O)Nc3ccc(C(F)(F)F)cc3)ccc2O[C@@H]1CN(C)C(=O)Nc1cccc2ccccc12 | 18 | 23
C[C@@H]1CCCCO[C@@H](CN(C)C)[C@H](C)CN([C@H](C)CO)C(=O)c2cc(NC(=O)CCCCCC(=O)Nc3ccccc3N)ccc2O1 | 24 | 15
COc1ccc(NC(=O)Nc2ccc3c(c2)C(=O)N([C@H](C)CO)C[C@H](C)[C@@H](CN(C)Cc2ccccc2)OCCCC[C@H](C)O3)cc1 | u | x

Sorted by heavy-atom count (high to low): four of the compounds above.
SMILES | Vaccinia stage | Vaccinia stage Venus
C[C@@H]1CCCCO[C@@H](CN(C)C(=O)c2ccccc2)[C@H](C)CN([C@@H](C)CO)C(=O)c2cc(NC(=O)Nc3ccc(C(F)(F)F)cc3)ccc2O1 | -19 | -4
CCCNC(=O)N1CC2(C1)CN(C(=O)CC1CC1)[C@@H](CO)c1c2c2ccc(OC)cc2n1C | 0 | -16
O=C(CC1CC1)N1CC(=O)N2[C@H](C1)[C@H](c1ccc(-c3ccccc3)cc1)[C@@H]2CO | 20 | 5
O=C(NC[C@H]1[C@@H](c2ccccc2)[C@H](CO)N1CC1CC1)c1cccnc1 | 0 | -1

Other records:
SMILES | Vaccinia stage | Vaccinia stage Venus
COCC(=O)Nc1ccc2c(c1)C(=O)N(C)C[C@@H](OC)[C@H](C)CN(CCC(F)(F)F)[C@@H](C)CO2 | 1 | -1
COc1ccc(S(=O)(=O)N(C)C[C@@H]2OCCCC[C@H](C)Oc3ccc(NC(=O)CCCN(C)C)cc3C(=O)N([C@H](C)CO)C[C@H]2C)cc1 | 9 | 0
CCCNC(=O)N(C)C[C@@H]1Oc2cc(Br)ccc2S(=O)(=O)N([C@@H](C)CO)C[C@@H]1C | 7 | 3
COc1ccc([Si](C)(C)[C@H]2[C@H](CCn3cc([C@H](O)c4ccccc4)nn3)O[C@@]3(C(=O)N(Cc4ccc(N5CCC5=O)cc4)c4ccccc43)[C@@H]2C)cc1 | -30 | -16
CO[C@@H]1CN(C)C(=O)c2cc(NC(C)=O)ccc2OC[C@@H](C)N(Cc2ccc(-c3ccccn3)cc2)C[C@H]1C | -8 | -2
CC(C)NC(=O)N(C)C[C@H]1Oc2ccc(NC(=O)Nc3cccc4ccccc34)cc2C(=O)N([C@@H](C)CO)C[C@@H]1C | 0 | 4
CN(C)CC(=O)N[C@@H]1C=C[C@H](CC(=O)NCc2ccccc2F)O[C@H]1CO | 11 | 13
CCO[C@H]1OC(C(=O)N2CCOCC2)=C[C@@H](c2cn(C(C)=O)c3ccccc23)[C@@H]1CCCO | 5 | 17
COc1ccc2c3c(n(C)c2c1)[C@@H](CO)NCC31CN(Cc2ccc(-c3ccccn3)cc2)C1 | u | x
O=C(Nc1ccccc1)N[C@@H]1CC[C@H](CCNC(=O)c2ccccc2F)O[C@H]1CO | 1 | 1
C[C@H]1CN([C@@H](C)CO)C(=O)c2cc(-c3ccc(F)cc3)cnc2O[C@H]1CN(C)C(=O)c1ccccn1 | 8 | 1
C[C@@H]1CN([C@@H](C)CO)C(=O)c2cccc(NC(=O)c3ccc(-c4nccs4)cc3)c2O[C@H]1CN(C)C(=O)Nc1ccc(C(F)(F)F)cc1 | -19 | -17
COCC(=O)N1[C@H](CO)[C@H](c2ccc(-c3cccc(F)c3)cc2)C12CN(C(=O)C1CC1)C2 | -33 | -27
O=C(C[C@@H]1C[C@@H]2c3cc(NC(=O)C4CCOCC4)ccc3O[C@@H]2[C@H](CO)O1)NCc1ccc2c(c1)OCO2 | 12 | 17
O=C(CN1CCOCC1)N[C@H]1CC[C@@H](CCn2cc(C3CC3)nn2)O[C@H]1CO | -3 | -3
C[C@H](CO)N1C[C@H](C)[C@@H](CN(C)Cc2ccc(Cl)c(Cl)c2)Oc2c(NS(C)(=O)=O)cccc2C1=O | 6&-8 | -7&-3
Cc1noc(C)c1NC(=O)N(C)C[C@H]1Oc2ccc(NC(=O)Cn3cnnn3)cc2C(=O)N([C@@H](C)CO)C[C@H]1C | 23 | 25
O=C(C[C@H]1CC[C@@H]2[C@H](COC[C@@H](O)CN2C(=O)Nc2cccc(F)c2)O1)NCc1ccccc1Cl | -28 | -28
C[C@H](CO)N1C[C@H](C)[C@@H](CN(C)Cc2ccc(Cl)c(Cl)c2)Oc2ccc(NS(=O)(=O)c3cccs3)cc2CC1=O | u | x
C[C@@H]1CN([C@@H](C)CO)C(=O)Cc2cc(NC(=O)Nc3ccc(F)cc3)ccc2O[C@H]1CN(C)S(=O)(=O)c1cccs1 | 1 | 5

Profiles, quoted from the list. Values in the order: Vaccinia stage | Vaccinia stage Venus
CC(C)NC(=O)N(C)C[C@@H]1Oc2ccc(NC(=O)Nc3ccccc3)cc2CC(=O)N([C@H](C)CO)C[C@@H]1C reads 13 | 2
C[C@@H]1CN([C@H](C)CO)C(=O)Cc2cc(NC(=O)Nc3ccc(C(F)(F)F)cc3)ccc2O[C@@H]1CN(C)C(=O)Nc1cccc2ccccc12 reads 18 | 23
O=C(c1cccc(F)c1)N1CC[C@@H]2[C@H](CO)Nc3ccc(C#Cc4cccc(F)c4)cc3[C@@H]21 reads 8 | 4

Next part
SMILES | Vaccinia stage | Vaccinia stage Venus
C[C@H](CO)N1C[C@H](C)[C@H](CN(C)C(=O)Nc2ccc3c(c2)OCO3)Oc2ccc(NC(=O)Cc3ccccc3)cc2CC1=O | 12 | 9
CN1C(=O)c2cc(NC(=O)C3CCCCC3)ccc2OC[C@H]2O[C@H](CC(=O)NCc3ccccc3F)CC[C@H]21 | 4 | 2
CN1C(=O)c2cc(NC(=O)c3cscn3)ccc2OC[C@H]2O[C@H](CC(=O)NCc3ccc(Cl)c(Cl)c3)CC[C@@H]21 | -15 | 0
C[C@@H]1CN([C@@H](C)CO)C(=O)CCCn2nncc2CO[C@H]1CN(C)C(=O)c1ccncc1 | 11&6 | 9&6
C[C@H]1CN([C@@H](C)CO)C(=O)c2cc(C#Cc3ccncc3)cnc2O[C@H]1CN(C)C(=O)CN(C)C | 0 | 16
C[C@H](CO)N1C[C@H](C)[C@@H](CN(C)Cc2ccc(C(F)(F)F)cc2)OCc2ccccc2-c2c(n(C)c3ccccc23)C1=O | -24 | -27
C/C=C/c1ccc2c(c1)O[C@@H](CN(C)CC1CCCC1)[C@H](C)CN([C@H](C)CO)S2(=O)=O | -5 | -12
COc1ccccc1-c1cn(CC[C@@H]2CC[C@@H](NC(=O)Cc3ccccn3)[C@@H](CO)O2)nn1 | 2 | 4
C[C@H](CO)N1C[C@H](C)[C@H](CN(C)S(=O)(=O)c2ccc(Cl)cc2)OCCCC[C@H](C)Oc2ccc(NC(=O)Nc3ccc(F)cc3)cc2C1=O | -16 | -5
C[C@@H]1CN([C@H](C)CO)C(=O)c2c(c3ccccc3n2C)-c2ccccc2CO[C@H]1CN(C)S(=O)(=O)c1ccccc1 | u | x
C[C@H](CO)N1C[C@H](C)[C@@H](CN(C)Cc2ccc(C(=O)Nc3ccccc3N)cc2)Oc2ccc(NC(=O)Cn3cnnn3)cc2C1=O | 13&11 | 11&7
CC(C)C#Cc1ccc2c(c1)O[C@H](CN(C)C(=O)C1CC1)[C@@H](C)CN([C@@H](C)CO)S2(=O)=O | -6 | -14
CCNC(=O)C[C@H]1CC[C@@H]2[C@@H](COc3ccc(NC(=O)c4ccc(C(F)(F)F)cc4)cc3C(=O)N2C)O1 | -34 | -30
COc1cc(CN2CC3(CCN(C(=O)CN4CCOCC4)CC3)c3c(n(C)c4cc(OC)ccc34)[C@@H]2CO)cc(OC)c1 | -1 | -1
C[C@H]1CN([C@@H](C)CO)S(=O)(=O)c2ccc(Br)cc2O[C@@H]1CN(C)C(=O)Cc1cccnc1 | 7 | -3
CCCNC(=O)Nc1ccc2c(c1)C(=O)N(C)C[C@H](OC)[C@@H](C)CN[C@@H](C)CO2 | 7 | 9
